# High-throughput results (PubChem BioAssay)
# TRPV1 PAM: enhances activation of the human vanilloid receptor TRPV1. 320,000 tested, 0.02% active. AID 540277. TRPV1-expressing cells, Fluo-8 calcium influx, capsaicin EC20 potentiation; host cell line not named in the record; control for the full effect not named in the record. potentiation, % at 8.33 µM. Q8NER1; active means potentiation above 80%; inconclusive means 30% to 80%; inactive means below 30%; further: 0% is about no effect
# Target sequence (Q8NER1 whole entry, looked up): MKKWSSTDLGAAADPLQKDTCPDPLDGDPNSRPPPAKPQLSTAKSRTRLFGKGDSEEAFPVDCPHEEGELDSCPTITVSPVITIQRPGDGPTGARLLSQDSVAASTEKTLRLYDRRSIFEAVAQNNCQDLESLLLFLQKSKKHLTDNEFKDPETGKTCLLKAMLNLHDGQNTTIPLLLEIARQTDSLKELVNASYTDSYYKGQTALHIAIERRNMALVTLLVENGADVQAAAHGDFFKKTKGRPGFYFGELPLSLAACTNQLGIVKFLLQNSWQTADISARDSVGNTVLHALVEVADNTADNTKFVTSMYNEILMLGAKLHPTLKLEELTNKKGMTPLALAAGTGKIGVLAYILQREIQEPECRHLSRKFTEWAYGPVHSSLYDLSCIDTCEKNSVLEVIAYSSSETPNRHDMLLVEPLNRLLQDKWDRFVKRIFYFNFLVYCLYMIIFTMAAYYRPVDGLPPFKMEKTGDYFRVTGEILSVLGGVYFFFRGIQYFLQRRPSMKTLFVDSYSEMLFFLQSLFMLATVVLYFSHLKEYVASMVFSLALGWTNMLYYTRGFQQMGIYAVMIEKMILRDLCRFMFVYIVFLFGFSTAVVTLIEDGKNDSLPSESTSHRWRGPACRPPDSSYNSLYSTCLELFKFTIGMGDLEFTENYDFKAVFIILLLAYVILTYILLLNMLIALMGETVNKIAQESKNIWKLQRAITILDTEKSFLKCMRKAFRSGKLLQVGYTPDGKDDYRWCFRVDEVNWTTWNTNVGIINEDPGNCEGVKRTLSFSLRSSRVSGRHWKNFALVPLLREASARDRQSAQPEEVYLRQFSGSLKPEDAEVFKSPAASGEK
#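 Cells expressing TRPV1 were dye-loaded with Fluo-8 and read kinetically: 10 s baseline, 3 min after compound (agonist portion), then 2 min after EC20 capsaicin (allosteric enhancer portion). Calcium-bound dye fluorescence at 480/520 nm.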
# PINK1 expr mod: PINK1 expression modulation; PINK1 immunofluorescence, high-content cytometry, 24 h; AID 624263; 410,000 tested, 0.2% active; Potency, µM (top dose mostly 76.6 µM), for the others: at the highest dose activation (PINK1 increase), usual class: activators; active = well fitted activation curve with a large enough effect; inconclusive = small, poorly fitted or top-dose-only effect; inactive = flat fitted curve, though single readings scatter; cell line not stated here;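 further: potency means the concentration at half of the fitted maximal effect; % of control where 0% means no effect; nearly all actives have a fitted effect of over 65% in size; a mitochondrial uncoupler was the plate control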
#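 Measures PINK1 amount and localization on or inside mitochondria by immunofluorescence. Stable cells get compounds at 5 concentrations for 24 hours before fixation and staining; CCCP controls included.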
# TRPML1 inh: blocks the human TRPML1 channel | Q9GZU1 | TRPML1-inducible cells, Ca2+ dye fluorescence, FDSS; active compounds read low; inhibition of EC80 agonist-evoked calcium signal | activity change, negative = inhibition, % (concentration not given with the values) | 390,000 tested, 0.02% active | AID 624415; in the data active means activity change below about -50%; inconclusive means about -30% to -50%; inactive means above about -30%;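 further: stimulus is agonist 54-4 at its EC80 concentration; on the % scale 0 is the no-effect control and ±100 the full control effect; the text of the record puts the active cut at -80%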
#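 TRPML1-DL cells, Tet-induced overnight (~16 h, 37 °C) at 1,500 cells/well, were loaded with Ca8 no-wash dye plus quencher for 45-90 min at room temperature. Compounds were pinned during FDSS kinetic reading; agonist 54-4 at EC80 (4 uM final) then added.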
# TRPML1 agonist: agonists of human TRPML1 channel; Q9GZU1; TRPML1-expressing cells, Ca2+ dye fluorescence, FDSS; host cell line not named in the record; reference of the full effect not given here; 410,000 tested, 0.12% active; activation, % (concentration not given with the values); AID 624414; in the data active = activation above about 50%; inconclusive = about 30% to 50%; inactive = below about 30%; further: 0% is about no effect; the text of the record puts the active cut at 80%
#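 In this qHTS format, compounds were pin-transferred onto Ca8-dye-loaded TRPML1-DL cells induced with Tet overnight, and intracellular Ca2+ fluorescence was recorded kinetically for 110 s after a 10 s baseline. A subsequent 4uM final 54-4 (EC80) addition followed by a second 110 s read served as the antagonist phase.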
# Sfp inh: Sfp phosphopantetheinyl transferase inhibition; AID 1490; 310,000 tested, 3.5% active; Potency, µM, without a hit: max response, negative = inhibition, actives largely listed as inhibitors; Q9F4F7; Biochemical Sfp PPTase activity, qHTS; active means well fitted inhibition curve with a large enough effect; inconclusive means small, poorly fitted or top-dose-only effect, or another doubt; inactive means no such curve, though single readings can be large or run the other way;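 further: the enzyme is Sfp with the accession as filed and its product quenches rhodamine fluorescence; potency means the concentration at half of the fitted maximal effect; 0% = enzyme reaction without inhibitor and -100% = no enzyme wells; top concentration of the series not given in the record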
#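 With Hepes-Na pH 7.6 buffer containing 10 mM MgCl2, Sfp (15 nM) modified BHQ-2-YbbR (12.5 uM) using rhodamine-CoA (5 uM). Two reads 30 minutes apart at 525/598 nm yielded each well's rate.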
# Menin-MLL FL inh: inhibitors of human menin-MLL interaction, wild-type MLL peptide. Fluorescence polarization, fluorescein-MLL peptide displacement from menin. 290,000 tested, under 10 active. FP activity change, % at 61.4 µM; inconclusive = falling polarisation curve, or a change in total fluorescence; inactive = total fluorescence flat and polarisation flat or rising; no compound was filed as active; the % refers to the polarisation; negative = inhibition;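 further: % of control where 0% means no effect; inhibitors lower the polarisation; unlabelled MLL peptide was the positive control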
# ClpP mod: qHTS Assay for Activators of ClpP. ATP-dependent Clp protease proteolytic subunit (Bacillus subtilis (strain 168)), P80244. Potency, µM (top dose mostly 57.5 µM), inactives show at the top dose activity change, negative = active. AID 651965, 2013. 340,000 tested, 1.9% active. purified B. subtilis ClpP, FRET peptide cleavage, 20 min; active = well fitted falling curve with a large enough effect; inconclusive = small, poorly fitted or top-dose-only effect; inactive = no such curve, though single readings can be large or run the other way; further: potency means the concentration at half of the fitted maximal effect; the source files actives as falling curves though it sought activators and does not explain the sign; nearly all actives have a fitted effect of over 65% in size; many hits overshoot -100%
# Target sequence (P80244 whole entry, looked up): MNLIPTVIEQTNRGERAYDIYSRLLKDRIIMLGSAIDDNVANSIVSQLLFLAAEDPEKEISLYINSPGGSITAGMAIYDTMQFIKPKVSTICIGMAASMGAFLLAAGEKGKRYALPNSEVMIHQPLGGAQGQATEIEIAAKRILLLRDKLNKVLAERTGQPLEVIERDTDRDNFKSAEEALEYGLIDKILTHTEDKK
#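 ClpP 10 microg/mL final, pH 8 Tris/KCl buffer with BSA, glycerol, Tween-20; compound pinned in; FRET-FV substrate; RT 20 min; Ex320/Em430; ΔFRET vs ADEP 5.8 microM, DMSO, no enzyme.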
# Numbers without * were called inactive; ? = inconclusive; . = not tested or not shown; & = joins results of further samples; [ ] = remark or other dose. Rows were taken by chance; about 4.4% have a hit in one of these screens.
SMILES	TRPML1 agonist	TRPML1 inh	TRPV1 PAM	ClpP mod	Sfp inh	Menin-MLL FL inh	PINK1 expr mod
CC(C)(C)C(=O)Nc1sc2c(c1C#N)CCN(Cc1ccccc1)C2	6.2	12	?	-20%	4%	?	0.0%
N#Cc1c(N)sc(=S)c2c1CCCCC2	9.4	-8	8	-2.5%	5µM*	?	-0.5%
CCOc1cc(C(=O)Nc2ccccc2N2CCOCC2)ccc1OCC(=O)N1CCCCC1	-0.8	-11	-5	-12%	5%	-3.1	-0.3%
O=C(NC1CCCCC1)c1nc2c(nnn2Cc2ccccc2Cl)c(=O)[nH]1	3.5	15	8	-4.2%	-7%	1.1	-1.5%[38.3 µM]
Cc1oc(-c2ccc(Cl)cc2)nc1CN1CCC(C(=O)NCCCN2CCCC(C)C2)CC1 (centres undefined)	0.6	-13	9	-4.4%	3%	.	-2.3%
Cn1nc(CC(=O)Nc2ccc(N3CCN(C(=O)OC(C)(C)C)CC3)cc2)c2ccccc2c1=O	0.0	21	-1	-0.6%	21%	3.5	0.4%
O=C(Cc1cccc2ccccc12)NN1C(=O)CSC1=S	-0.4	-4	-4	.	19%	4.1	6.4%
O=C(NCc1nc(-c2ccccc2)cs1)c1ccccc1	2.4	48	-9	.	21%	-1.8	3.5%
CSc1nc(C)cc(Oc2ccc(=O)[nH]n2)n1	1.9	15	-15	.	18%	1.0	-0.9%
COc1ccc(NCc2nnc(SCC(=O)NNC(=O)c3ccc(C)cc3)n2C)cc1	0.9	-9	-6	.	13%	-5.6	-1.1%
CN(C)S(=O)(=O)c1cccc(NC(=O)COC(=O)c2cc(-c3cccc(Br)c3)nc3ccccc23)c1	1.0	13	2	-27%	6%	11	3.1%
O=C(CSc1nc2c(cnn2-c2ccc(F)cc2)c(=O)[nH]1)N1CCOCC1	1.2	-2	1	-1.2%	-1%	1.3	-1.5%
Cc1cnc(C(=O)NNC(=O)c2ccc(Br)cc2)cn1	-0.2	5	-3	.	.	.	3.4%
O=C(NCC1CCCCC1)c1ccc(Cl)c(S(=O)(=O)N2CCOCC2)c1	-1.1	-6	1	0.0%	.	.	1.9%
CC(=O)c1ccc(S(=O)(=O)NCc2ccc(C(=O)NCC(c3ccccc3)N(C)C)cc2)cc1 (centres undefined)	-0.2	-11	-2	.	2%	-4.2	0.1%
CN(C)S(=O)(=O)n1cc(/C=C(\NC(=O)c2ccccc2Cl)C(=O)NCCCN2CCOCC2)c2ccccc21	0.1	0	-4	-21%	16%	1.1	2.8%
Cc1ccc(NC(=O)Cn2c(=O)n(Cc3nc(-c4ccccc4)no3)c(=O)c3cc4c(cc32)OCO4)cc1F	0.5	-3	.	4.6%	.	.	2.9%
O=C1C[C@@H](c2ccc(O)cc2)Oc2cc(O)cc(O)c21	-0.5	5	9	1.8%	13%&16%	2.9	1.6%
O=C1C(=O)N(c2cccc(Cl)c2)C(c2ccccc2[N+](=O)[O-])/C1=C(\O)c1ccccc1 (centres undefined)	4.3	31	6	0.0%	22µM*	?	3.2%[38.3 µM]
N#Cc1ccc(C(=O)Nc2nc3ccccc3[nH]2)cc1	-0.3	-11	9	.	9%	-4.7	-1.3%
CC(C)C(Cl)=NOC(=O)Nc1ccc(S(N)(=O)=O)cc1	0.6	-20	.	-0.5%	.	.	-5.0%
Cc1cccc(C)c1-n1nnnc1C1(C)CCC(=O)N1CCCN1CCOCC1 (centres undefined)	-0.6	.	.	2.3%	.	.	1.8%
COc1ccc(NC(=O)CNC(=O)Cc2ccccc2)cc1OC	-0.5	-2	19	.	13%	7.3	2.8%
CCOc1ccc(S(=O)(=O)NCCC(=O)OCC(=O)Nc2cc(C)on2)cc1	-0.1	17	-1	-0.7%	16%	1.1	0.8%
CCCNS(=O)(=O)c1ccc(OCC(=O)N2CCOCC2)cc1	0.2	-18	2	-1.4%	10%	-0.6	?

# Marked active in Sfp inh, of those listed so far:
SMILES | TRPML1 inh | Sfp inh | Menin-MLL FL inh | PINK1 expr mod
N#Cc1c(N)sc(=S)c2c1CCCCC2 | -8 | 5µM* | ? | -0.5%
O=C1C(=O)N(c2cccc(Cl)c2)C(c2ccccc2[N+](=O)[O-])/C1=C(\O)c1ccccc1 (centres undefined) | 31 | 22µM* | ? | 3.2%[38.3 µM]

# (listing goes on)
SMILES	TRPML1 agonist	TRPML1 inh	TRPV1 PAM	ClpP mod	Sfp inh	Menin-MLL FL inh	PINK1 expr mod
CN(CC(=O)Nc1ccc(Cl)cc1)C(=O)c1cccc(S(=O)(=O)N2CCN(Cc3ccccc3)CC2)c1	0.2	6	0	1.4%	.	.	?
Cc1ccc(C)c(NC(=O)CCn2cnnn2)c1	3.1&4.3	1&-6	7	-0.8%&-3.0%	8%	2.7	0.4%&-0.2%
COc1ccc(C2CCCN2C(=S)Nc2ccc(C)cc2C)cc1OC (centres undefined)	-0.8	-8	-12	.	-7%	-0.5	4.1%
C[C@@H]1CN([C@@H](C)CO)C(=O)c2cc(NS(C)(=O)=O)ccc2O[C@H]1CN(C)Cc1ccc(Oc2ccccc2)cc1	0.6	-12	.	1.1%	.	.	1.7%
O=C(NNC(=O)c1cccs1)c1cccnc1	0.5	36	-1	.	28%	-0.5	0.1%
Cn1c2c(c(=O)n(C)c1=O)C(c1ccc(Br)cc1)Nc1ccccc1O2 (centres undefined)	3.4	0	-5	-1.9%	-11%	1.9	-2.2%[38.3 µM]
CC(=O)Nc1ccc(SCc2c(C)noc2C)cc1	1.8	-9	-2	-3.4%	11%	0.0	-1.7%
O=c1oc2ccccc2n1CCCOc1ccccc1Cl	1.4	-4	.	-2.0%	.	.	-0.7%
Cn1c(=O)n(C)c2cc(C(=O)O)ccc21	0.4	-2	-10	-0.6%	14%	-0.7	-1.3%
O=C(Nc1ccccc1N1CCCCC1)c1ccc(OC(F)F)cc1	0.5	57	-2	.	-9%	.	13%
CCC(Oc1ccccc1)C(=O)Nc1ccc(C)c(S(=O)(=O)N2CCOCC2)c1 (centres undefined)	0.5	5	-5	-12%	.	.	-0.2%
COc1cccc(N2CC(=O)N(NC(=O)CSc3nc(C)cc(C)c3C#N)CC2=O)c1	-0.2	-7	0	4.5%	16%	2.2	-0.7%
CCSc1ncc(Cl)c(C(=O)Nc2nc3ccc(Cl)cc3s2)n1	0.0	-9	.	0.3%	.	.	0.1%
CCN(CC(=O)Nc1cccc(OC)c1)CC(=O)Nc1ccc(Br)c(C)c1	2.5	-11	3	0.4%	-11%	1.6	21%
CS(=O)(=O)N(Cc1nc(-c2ccc(F)cc2)no1)c1ccccc1Cl	-0.3	-2	-2	-0.5%	.	.	4.9%
CCOC(=O)C1CCN(C(=O)Cn2ncc3c4ccccc4n(C)c3c2=O)CC1	1.8	-1	.	?	.	.	6.8%
Cc1cc(CNC(=O)c2cccc3c2C(=O)c2ccc(-c4ccc(F)cc4OCc4ccccc4)cc2S3(=O)=O)c(C(F)(F)F)o1	-0.2	-3	.	-1.6%	.	.	0.9%
O=C(Nc1ccc(Oc2ccsc2C(=O)O)cc1)c1ccccc1	1.8	20	-5	2.0%	14%	-13	0.5%
CCOC(=O)c1c(NC(=O)CN2CCN(C)CC2)sc(C(=O)Nc2ccccc2)c1C	-0.7	-16	18	.	-6%	-0.7	-0.3%
COc1ccc(CCN=C2SCC(=O)N2Cc2ccccc2)cc1OC	4.9	-5	10	.	6%	-6.9	-0.8%
COc1ccc(NC(=O)COC(=O)c2ccc(S(=O)(=O)N(C)c3ccccc3OC)cc2)cc1	0.7	-4	.	2.9%	.	.	1.3%
Cc1onc(-c2ccccc2)c1C(=O)NCc1ccccc1F	-0.3	5	0	.	15%	-3.3	1.7%
CCOC(=O)c1cc2c(C)[nH]c(C)c2cc(C(=O)OCC)c1=O	0.9	-12	-8	.	-8%	2.2	3.4%
Cc1cccc(-n2cc(-c3ccccc3)c3c(NC4CCCC4)ncnc32)c1	3.0	3	.	-18%	.	.	4.3%
CC(C)c1ccc(S(=O)(=O)N2CCN(C(=O)c3ccc(N4CCCC4)c([N+](=O)[O-])c3)CC2)cc1	1.2	-7	27	-2.5%	16%	.	0.0%
CC(C)C1N(C(=O)N2CCOCC2)CCN1S(=O)(=O)c1ccccc1 (centres undefined)	0.6	-2	-15	.	7%	9.1	0.5%
COc1ccccc1-c1coc2c(CN3CCN(CCO)CC3)c(O)ccc2c1=O	-0.8	-9	.	45%	.	.	0.4%
Cc1cc(C)cc(N(C(=O)CNC(=O)c2ccco2)C(C(=O)NC2CCCCC2)c2cccnc2)c1 (centres undefined)	-0.9	-14	4	-0.4%	14%	5.2	5.7%
Cc1nn(Cc2ccccc2Cl)c2sc(C(=O)NCc3ccc4c(c3)OCO4)cc12	0.5	-7	-4	?	21%	1.0	-1.2%
CCOC(=O)c1c(C)oc2ccc(OCc3cc(C(=O)OC)oc3C)cc12	1.7	41	-5	-7.4%	?	1.9	2.2%
Cc1ccc(N2CCn3c2nc2c3c(=O)n(CCCc3ccccc3)c(=O)n2C)cc1C	-0.4	3	.	-23%	.	.	0.2%
CCN1C(=O)C2(SC(NC(C)=O)=NN2C(C)=O)c2cc(C)ccc21 (centres undefined)	0.7	10	5	0.5%	14%	4.0	-3.0%[38.3 µM]
COc1ccc(C)cc1NC(=O)CSc1nc2scc(C)c2c(=O)[nH]1	1.2	-10	1	7.2%	-14%	.	15%
COc1cccc(-c2nnc(-c3cc4cc(Cl)ccc4oc3=O)o2)c1	-0.8	13	.	0.4%	.	.	-0.2%
O=C(O)c1ccc(C=NNC(=O)c2cccc3ccccc23)cc1	-0.5	4	.	-2.8%	.	.	-3.3%
Cc1coc(C)c1C(=O)CC1(O)C(=O)Nc2cc(Cl)cc(Cl)c21 (centres undefined)	0.7	13	?	-0.6%	13%	5.2	-0.4%
O=C(Cc1ccccc1)NNC(=O)Nc1cccc(Cl)c1	0.4	24	-2	-3.9%	7%	5.0	-1.9%
